hNpr1 antagonist: Natriuretic polypeptide receptor (hNpr1) antagonism - Primary qHTS | Potency, µM (titrated, usually from 46.3 µM), for the others: at the top dose activity change, negative = inhibition, actives largely listed as inhibitors | 76,000 tested, 1.6% active | Atrial natriuretic peptide receptor 1 (Homo sapiens), P16066 | HEK293 hNpr1 GloSensor cGMP, ANP-stimulated luminescence; active = well fitted inhibition curve with a large enough effect; inconclusive = small, poorly fitted or top-dose-only effect; inactive = no such curve, though single readings can be large or run the other way;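 note: nearly all actives have a fitted effect of over 60% in size; nearly all hits also lower the signal before the agonist is added; a reference antagonist and vehicle were the controls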
Target sequence (P16066 whole entry, looked up): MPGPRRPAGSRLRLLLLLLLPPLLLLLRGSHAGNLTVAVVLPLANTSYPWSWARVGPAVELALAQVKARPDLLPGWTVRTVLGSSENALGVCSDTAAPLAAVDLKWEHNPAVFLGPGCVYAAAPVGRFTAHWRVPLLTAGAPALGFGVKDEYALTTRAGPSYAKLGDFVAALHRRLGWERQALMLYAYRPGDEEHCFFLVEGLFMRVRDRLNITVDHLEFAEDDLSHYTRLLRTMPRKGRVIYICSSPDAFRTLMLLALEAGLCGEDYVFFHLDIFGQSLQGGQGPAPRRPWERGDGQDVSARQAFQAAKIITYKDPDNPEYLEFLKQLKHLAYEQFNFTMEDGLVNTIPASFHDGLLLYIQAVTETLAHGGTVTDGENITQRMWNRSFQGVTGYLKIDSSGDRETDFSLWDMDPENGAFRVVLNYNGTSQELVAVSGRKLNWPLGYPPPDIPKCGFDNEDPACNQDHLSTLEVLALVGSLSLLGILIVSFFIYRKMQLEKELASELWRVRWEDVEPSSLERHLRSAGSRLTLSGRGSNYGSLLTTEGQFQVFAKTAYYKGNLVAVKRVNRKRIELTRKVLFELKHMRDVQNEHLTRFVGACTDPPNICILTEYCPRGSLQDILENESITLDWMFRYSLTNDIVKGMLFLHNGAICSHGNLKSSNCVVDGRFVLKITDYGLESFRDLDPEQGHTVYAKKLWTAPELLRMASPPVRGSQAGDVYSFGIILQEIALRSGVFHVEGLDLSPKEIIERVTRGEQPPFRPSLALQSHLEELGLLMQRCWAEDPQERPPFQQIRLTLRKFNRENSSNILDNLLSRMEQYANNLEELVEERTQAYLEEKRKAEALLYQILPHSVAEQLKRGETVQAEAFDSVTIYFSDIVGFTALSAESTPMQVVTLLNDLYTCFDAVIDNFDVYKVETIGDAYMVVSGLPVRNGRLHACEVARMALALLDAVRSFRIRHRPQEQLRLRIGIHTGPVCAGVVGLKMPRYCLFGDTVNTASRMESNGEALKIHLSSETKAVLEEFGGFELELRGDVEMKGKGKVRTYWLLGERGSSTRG
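HEK293 cells stably expressing human Npr1 and cGMP GloSensor pGS-40F, loaded 2 h with 2% GloSensor reagent, given compound 30 min at room temperature. Luminescence read before and 20 min after 0.1 nM hNppA.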
Numbers without * were called inactive; ? = inconclusive; [ ] = another dose, or the depositor's remark. % is set by controls: 0 for no effect and ±100 for the full control effect; potency is the fitted concentration of half-maximal effect. Some of the compounds tested; count on the stated rates, not on these rows.

molecule	hNpr1 antagonist
O=C(c1cccs1)N1CC[C@@H]2[C@@H](CCC(=O)N2CCc2cnc[nH]2)C1	-2.2%
CC(C)(CC1Cc2ccccc2C1)NC(=O)C1CC2(CCNCC2)CN1 (configuration not stated)	-0.3%
Cc1ccc(C(=O)N2CCC3(CC2)NC(=O)N(c2ccc(F)cc2)N3)cc1	3.9%
CN(CCc1ccccn1)c1ccc(-c2nc(COc3ccccc3)no2)cn1	?
COCCc1nncn1C1CCN(S(=O)(=O)c2ccc(Cl)cc2)CC1	0.7%
Cc1ccc(C(=O)N2CCN(c3cc(-c4ccc(Cl)cc4)[nH]n3)CC2)c(C)c1	6.31µM*
COCC(=O)N1CC(C(=O)N2CCCCC2)[C@H](c2ccncc2)C1 (some centres not stated)	-3.2%
CCN(CC)C(=O)c1c(-c2ccccc2)noc1[C@H](C)O	2.5%[70.6 µM]
CCn1c(=O)c2ccnn2c2ccc(C(=O)NCc3ccccc3)cc21	-10.7%
O=C(N[C@H]1CCOC[C@H]1C1CCOCC1)c1ccoc1	0.6%
CC(C)NC(=O)[C@@H](C)C1CC[C@@]2(C)CC[C@H](NC(=O)c3cccc(F)c3)[C@@H](C)[C@@H]2[C@H]1O (some centres not stated)	3.0%[70.6 µM]
CS(=O)(=O)N1CC(C(=O)Nc2ccc(N3CCOCC3)cc2)C2(CCCCC2)C1 (configuration not stated)	-9.4%
O=C(NCc1cccnc1)C1CCN(C(=O)c2ncn3c2COC(c2ccc(F)cc2)C3)CC1 (configuration not stated)	-2.0%
CN(CCc1ccccc1)CC[C@@H]1CC[C@H](O)[C@@H](C(=O)N(C)Cc2ccccc2)O1	-4.2%[70.6 µM]
O=c1[nH]c(C2CCCN([S+](=O)([O-])c3cccc(C(F)(F)F)c3)C2)nn1-c1ccccc1 (configuration not stated)	-9.4%
CNC(=O)[C@@H](CC(C)C)N1CCC[C@H]1C(=O)N1CCN(C)CC1	1.2%[70.6 µM]
CNC(=O)[C@@H]1CN(C(=O)c2cccc(OC)c2)C[C@H]1COC	4.3%
COCC(=O)NC1CCC12CCN(S(=O)(=O)c1cccc(OC)c1)CC2 (configuration not stated)	-0.4%
CCOC(=O)CC1(NC(=O)N2CCc3c(nc(-c4ccccc4)[nH]c3=O)C2)CCCCC1	-5.4%
O=C(Cc1cccc(Cl)c1)N1CCC2(CC1)N(c1ccccc1)C(=O)CS2(=O)=O	7.2%
CS(=O)(=O)c1ccc(CN2CCC[C@H]2c2nc(-c3ccnc(N4CCC(C(N)=O)CC4)c3)no2)cc1	-1.8%
CCN1C(=O)CCN(S(C)(=O)=O)CC12CCOCC2	3.6%
COC(=O)C(NC(=O)N1CCc2nc3cc(-c4ccccc4)[nH]n3c(=O)c2C1)C(C)C (configuration not stated)	1.3%
COC[C@@H]1CN(Cc2ccc(Cl)cc2F)C[C@H]1C(=O)NC1CC1	3.5%
COCC(=O)NC1CCC12CCN(C(=O)COc1ccc(F)cc1)CC2 (configuration not stated)	3.9%
O=C(O)COc1ccc(-c2nccc3c2C(=O)N(Cc2ccccc2)CC(CNC(=O)c2ccc(F)cc2)O3)cc1 (configuration not stated)	11.6%
Cc1nc(CC2CCN(C(=O)Cc3ccccc3)CC2)n[nH]1	2.0%
Cc1ccc(-c2noc([C@@H]3C[C@@H](O)CN3Cc3ccccc3O)n2)cc1F	1.4%[70.6 µM]
NC(=O)C1CCN(CC2(O)CCCN(CCCc3ccccc3)C2=O)CC1 (configuration not stated)	-1.2%
O=S(=O)(c1ccc(F)cc1)N1CCC(Oc2ccc(-c3noc(C4CC4)n3)cc2)C1 (configuration not stated)	?
COc1cccc(CNC(=O)Cn2c(-c3ccccc3)nc(C)cc2=O)c1	-0.8%
CC(=O)NC1CCN(Cc2cn(-c3ccccc3F)nc2-c2cc(C)sc2C)C1 (configuration not stated)	-1.3%
O=C(NC1CCCC1)c1ccc2c(c1)n(Cc1cccc(F)c1)c(=O)c1ccnn12	3.9%
O=C1NCCN2CC3(CCN(C(=O)NCCc4ccccc4)CC3)CC12 (configuration not stated)	1.5%
Cc1ccc(-c2cc3c(=O)n(CCNC(=O)c4ccc5ccccc5n4)ccn3n2)c(C)c1	?
O=C(NCCn1nc(-c2ccccc2)ccc1=O)C1NCCc2[nH]cnc21 (configuration not stated)	6.5%
Cc1cc(C)n(CC(=O)N2CC(F)(F)C[C@H]2c2nc(C3CC3)no2)n1	0.8%
Cc1ccc(CN2CCC(CNc3cc(C4CC(O)C4)ncn3)CC2)o1 (configuration not stated)	6.0%
COc1cccc(OCc2nc(C(=O)NCc3cn(C)nc3C)co2)c1	-5.4%
COc1cc(NC(=O)Cn2c(C)cc3nc4n(c(=O)c32)CCCCC4)cc(OC)c1OC	-19.5%
COC(=O)c1ccc(NC(=O)N2CCCC(CN3CCOCC3)CC2)cc1 (configuration not stated)	-1.2%
Cc1ccc([S+](=O)([O-])NC2CCCN(c3nc4ncccc4o3)C2)cc1 (configuration not stated)	-6.1%
Cn1c([C@H]2CCN(C(=O)c3cnccn3)C2)nc2ccccc21	4.0%[70.6 µM]
O=C(NC1CCCc2c1[nH]c1ccc(F)cc21)c1ccc2c(c1)OCO2 (configuration not stated)	-8.5%
Cn1cnnc1CCNC(=O)[C@H]1CNC[C@@H](C(=O)N2CCOCC2)C1	2.0%
CN1CCC(Oc2ncccc2C(=O)N(C)C)C1 (configuration not stated)	-8.1%
CC(C)(C)c1ccc(NC(=O)O[C@@H]2CO[C@H]3[C@@H]2OC[C@@H]3Nc2nccc(C(C)(C)C)n2)cc1	-8.1%
Cc1noc(C2CC3(CCN(C(=O)CCc4c(C)nn(C)c4C)CC3)CN2C)n1 (configuration not stated)	2.5%
Cc1ccc(Cn2c(C3CCN(C(=O)c4ccsc4)CC3)n[nH]c2=O)cc1	2.4%
COc1nc2c(cc1CNC(=O)[C@@H](N)CO)C(=O)N(CCc1ccccn1)C2	-3.0%
COCC(=O)N1C[C@@H]2CCCN3CCC[C@@H]([C@H]23)[C@H]1CCCC(=O)NCC1CC1	0.8%
O=c1[nH]c(N2CCOCC2)nc2c1CCN(Cc1ccc(Cl)c(F)c1)CC2	-0.4%
O=C(CC1CCCC1)N1CC[C@@]2(O)CCN(Cc3ccccn3)C[C@H]2C1	-7.5%
COCCN1CCC(N2CCN(S(=O)(=O)c3ccc(F)c(Cl)c3)CC2)C1=O (configuration not stated)	-2.3%
CCc1ccc(NC(=O)Cn2ccn3nc4c(c3c2=O)CCCC4)cc1	0.0%
O[C@@H]1C[C@@H](c2nnc3n2CCN(C2CCCC2)C3)N(Cc2cccnc2)C1	9.5%
Cc1c(Cl)cccc1NC(=O)N(C)CC1CCOCC1	6.5%
CNC(=O)[C@@H]1CN(Cc2cccc(OC(F)(F)F)c2)C[C@H]1CO	-4.1%
Cc1ccccc1OCc1nc(C2CN(C(=O)c3cc(F)ccc3F)C2)no1	-2.4%
COc1ccc(-n2c(=O)c3c(n2Cc2ccccc2)CN(C(=O)C2CCC(OC)CC2)CC3)cc1 (configuration not stated)	1.5%

Further structures follow.
molecule	hNpr1 antagonist
CSc1ncc(C(=O)N2CCC(c3nccn3CCN(C)C)CC2)cn1	5.2%
COCCn1c(C(=O)OC)c(NC(=O)Cc2ccccc2)c2cc(NC3CCCCC3)cnc21	2.9%
COCc1cc(=O)n(CC(=O)Nc2ccc(C)cc2Cl)c(N2CCOCC2)n1	2.0%
Cc1noc(C)c1CC(=O)NCCc1noc(-c2cccnc2)n1	0.0%
Fc1cccc(Cc2noc(-c3nc(-c4ccccc4)no3)n2)c1	-2.2%
Cn1ccc(C(=O)N2CC(CNC(=O)Cc3ccccc3)C3(C2)CN(c2ccccc2)C3)n1 (configuration not stated)	-1.0%
CCn1nccc1C(=O)Nc1ccc(-c2nnc3n2CCCC3)cc1	3.3%
O=S(=O)(c1ccc(F)cc1)N1CCC(OC2CCN(Cc3ccccc3)CC2)CC1	-0.1%
CNc1ncccc1C(=O)N1CCC(O)(c2ccc(C)cn2)CC1	-2.4%
Cc1onc(-c2ccccc2)c1C(=O)N[C@@H]1CCC[C@@H](C(=O)N2CCN(C)CC2)CC(=O)N(C)C1	3.3%
O=C1CCCCCN1C1CCN(Cc2cccnc2)CC1	0.1%[70.6 µM]
Fc1ccc(Nc2cnc3ccc(-c4ccccc4)nn23)cc1	-22.0%[70.6 µM]
c1cc2nncn2nc1NC1CCCC1	2.5%
Cc1cnc(C2CCC2)n1C1CCN(C(=O)CCC2CCCC2)CC1	-6.1%
CC1=NS(=O)(=O)N(Cc2ccccc2)C=C1C(=O)OCc1noc(-c2cccc(C)c2)n1	?
O=C(CN1CC2CC(C1)[C@H]1CCCC(=O)N1C2)NCCCN1CCN(c2ccccc2)CC1 (some centres not stated)	-1.7%
CCn1cc(S(=O)(=O)N2CCCC(Cc3ncc(C)n3CC3CC3)C2)cn1 (configuration not stated)	-21.8%
CC1(c2ccccc2)N(Cc2ccccc2)C(=O)OC12CCN(C(=O)Cc1cccc(F)c1)CC2 (configuration not stated)	-8.8%
COc1ccc(C(=O)N2CC(N(C)c3ccccc3C)C2)cc1	4.6%[70.6 µM]
O=C(CCn1cccn1)N1CCc2nn(Cc3ccccc3)c(=O)n2CC1	-12.6%

Copied from the list.
hNpr1 antagonist, CCn1cc(S(=O)(=O)N2CCCC(Cc3ncc(C)n3CC3CC3)C2)cn1 (configuration not stated) : -21.8%
hNpr1 antagonist, Cn1ccc(C(=O)N2CC(CNC(=O)Cc3ccccc3)C3(C2)CN(c2ccccc2)C3)n1 (configuration not stated) : -1.0%
hNpr1 antagonist, Cc1noc(C)c1CC(=O)NCCc1noc(-c2cccnc2)n1 : 0.0%

Following part.
molecule	hNpr1 antagonist
CN(Cc1ccc(OC(F)(F)F)cc1)Cc1ccc(-c2ccccc2)cc1	0.0%
CNC(=O)[C@@H]1CN(Cc2cccc(OC)c2OC)C[C@H]1CO	0.7%
O=C(Nc1ccccc1F)N1CCC2(CC1)CC(OCC1CC1)CCO2 (configuration not stated)	2.3%
O=C(c1cccnc1)N1CCN2C(=O)N(C3CCCCC3)C[C@H]2C1	0.0%[70.6 µM]
CC1CCN(Cc2ccc(C(=O)N[C@@H]3CCNC[C@H]3O)o2)CC1	8.5%
Cc1ccccc1N1CCN(C(=O)[C@@]23CCCC[C@H]2N(C)C(=O)CC3)CC1	-11.9%
COc1ccc(-c2cn(C)c(=O)n3cc(COc4ccnn4C)nc23)c(C)c1	-2.8%[70.6 µM]
CN(CCc1noc(C2CN(Cc3ccc(Cl)c(F)c3)C2)n1)S(C)(=O)=O	-0.6%
O=C(NCc1ccc(F)cc1)N1CCCC(Cc2noc(-c3ccncc3)n2)C1 (configuration not stated)	-13.3%
COc1ccc(CNC(=O)[C@@H]2CCC[C@@H](NC3CCOCC3)CN(C)C(=O)C2)cc1	4.3%[70.6 µM]
O=C(Nc1ccc([C@@H](O)[C@H]2COCC(=O)N2Cc2ccccc2F)cc1)c1ccc(F)cc1	-2.9%
O=C(Nc1cccc(OC(F)(F)F)c1)C1(CCO)CCN(c2ncccn2)C1 (configuration not stated)	11.3%
O=C(C1CC=CC1)N1CC(c2nnc(-c3ccncc3)o2)C2(CCOCC2)C1 (configuration not stated)	-0.9%
COc1ccc(NC(=O)COc2cccc(-c3nnc4n3CCCC4)c2)cc1	-1.1%
COCCc1nncn1C1CCN(S(=O)(=O)c2cccc(C)c2)CC1	-6.3%
CN(C)C(=O)c1cccnc1OC1CCN(C(=O)c2ccccc2Br)C1 (configuration not stated)	-2.2%
O=C(NC(C(=O)N1CCOCC1)C1CCN(C(=O)c2cccc(F)c2)CC1)c1ccc2c(c1)OCO2 (configuration not stated)	7.3%
COc1cccc(CC(=O)Nc2ccc3c(c2)CN(Cc2cccc(OC)c2OC)C(=O)CO3)c1	5.0%
COC[C@@H]1CN(C(=O)CCn2cc(C)cn2)C[C@H]1c1ccncc1	-10.2%
O=C(NCCc1noc(-c2cccnc2)n1)NC1CCCCC1	0.3%
COCCN1C(=O)c2ccccc2C(C(=O)NCCc2ccc(Cl)cc2)C12CCCC2 (configuration not stated)	-15.6%
CN(C)C[C@@H]1CN(C)C[C@H]1NC(=O)c1nn(C)c2ccccc12	1.8%
CN1C(=O)c2cccn2CC1CNS(=O)(=O)Cc1ccccc1 (configuration not stated)	-2.8%
O=C(Nc1nnc(Cc2ccccc2)s1)C1CC(=O)N(c2n[nH]c3cccc(F)c23)C1 (configuration not stated)	8.3%
O=C1CCCCC(Cc2ccccc2)(C(=O)Nc2ccc(F)cc2)N1 (configuration not stated)	2.1%
CC[C@H]1CN(S(=O)(=O)c2c(C)noc2C)CC[C@H]1CC(=O)NCc1ccc(F)cc1	-15.3%

Part of the list above in another layout:
CN1C(=O)c2cccn2CC1CNS(=O)(=O)Cc1ccccc1 (configuration not stated)
  hNpr1 antagonist: -2.8%

O=C(Nc1nnc(Cc2ccccc2)s1)C1CC(=O)N(c2n[nH]c3cccc(F)c23)C1 (configuration not stated)
  hNpr1 antagonist: 8.3%

O=C1CCCCC(Cc2ccccc2)(C(=O)Nc2ccc(F)cc2)N1 (configuration not stated)
  hNpr1 antagonist: 2.1%

CC[C@H]1CN(S(=O)(=O)c2c(C)noc2C)CC[C@H]1CC(=O)NCc1ccc(F)cc1
  hNpr1 antagonist: -15.3%

Screening results: PubChem, National Center for Advancing Translational Sciences (NCATS)
